# A340 absorber – compound light absorbance at 340 nm, profiling panel, artefact control, biochemical, MLSMR library, data from PS, PMK, MK assays | AID 708, 2007 | 65,000 tested, under 10 active | fold change at 10 µM | compound absorbance at 340 nm, fold over control;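 active = at 10 µM dose, initial 340 nm absorbance at least 2 fold that of control wells; inactive = change under 2 fold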;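 note: initial absorbance extrapolated from kinetic A340 decline of NADH oxidation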
# Autofluor 339 – intrinsic fluorescence of library compounds, ex339/em460 – biochemical, MLSMR library, data from DPM-DC assay, artefact control, profiling panel; 65,000 compounds, 5.5% hits; AID 709, 2007; compound autofluorescence, ex339/em460 nm, NADH buffer; hits give high values; 1 = no-compound wells, NADH background; fluorescence fold increase at 10 µM;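 active = at 10 µM, mean starting fluorescence two-fold or more over control wells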;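 note: signal is the first read of a kinetic run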
# MMP-13 inhibitor – human MMP13 inhibitors, primary screen, biochemical, FRET peptide cleavage; Collagenase 3 (Homo sapiens), P45452; MMP-13 fTHP FRET cleavage, Mca fluorescence; inhibition, % at 4 µM; 65,000 compounds, 0.07% hits; AID 570, 2006;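 active = inhibition above the mean of compound-free control plate wells plus 3 SD, cut at about 14% in these data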;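 note: 0% = DMSO wells and 100% = wells with reference MMP-13 inhibitor after basal subtraction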
# HEK293 NFkB inh – inhibitors of PMA/ionomycin-induced NF-kB reporter, primary screen, antigen receptor NF-kB inhibitor project, cell-based, HEK-293 luciferase reporter, luminescence; HEK-293 NF-kB luciferase reporter; inhibition, % at 3 µM; 62,000 compounds, 0.21% hits; AID 465, 2006;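 active = inhibition above the mean of all tested compounds plus 3 SD, cut at about 40% in these data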;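 note: 0% = stimulated DMSO wells and 100% = 10 µM reference inhibitor 5653914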
#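 System: NF-kB luciferase reporter HEK-293 cells | Replication: Single test | Control set: DMSO vs reference inhibitor | Evaluation: % inhibition | Schedule: 1 h pretreatment, 16 h stimulation, 37 °C | Probe or stimulus: PMA with ionomycin | Compound dosing: One dose, 3 µM | Detection: Luciferase luminescence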
# NADH enzymes – inhibitors of PK/LDH coupling enzymes, profiling panel, artefact control, biochemical, MLSMR library; IC50, µM (titrated, usually from 10 µM), for the others: at the highest dose inhibition; 65,000 compounds, 0.02% hits; coupled PK/LDH NADH assays, four targets; AID 774, 2007;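 active = single-dose screening hits from any of four coupled enzyme assays that gave an IC50 when retested across doses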;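 note: the DPM-DC format reads NADH fluorescence rather than 340 nm absorbance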
# tolC growth inh – growth inhibitors of E. coli tolC mutant, primary screen, strain BW25113 ΔtolC::kan, 384-well. 65,000 compounds, 2.2% hits. OD615. growth inhibition, % at 10 µM (by protocol);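 active = growth inhibition at or above a cutoff equal to the mean over every tested compound plus 3 SD, cut at about 60% in these data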;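 note: growth measured after 20 h incubation at 37 °C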
#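 Signal: optical density read at 615 nm; Assay system: E. coli ΔtolC::kan strain BW25113; Times: 20 h incubation with compound, 37 °C; Dosing: 10 µM final, single dose.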
# JNK3 blocker – JNK3 kinase activity inhibitors, primary screen, biochemical, human, purified enzyme | inhibition, % at 8 µM | HTS | Mitogen-activated protein kinase 10 (Homo sapiens), P53779 | 60,000 compounds, 0.61% hits; in the data active = inhibition above about 17%;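 note: 0% = DMSO and 100% = reference inhibitor; many of its hits are not listed in these tables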
# Target sequence (P53779 whole entry, looked up): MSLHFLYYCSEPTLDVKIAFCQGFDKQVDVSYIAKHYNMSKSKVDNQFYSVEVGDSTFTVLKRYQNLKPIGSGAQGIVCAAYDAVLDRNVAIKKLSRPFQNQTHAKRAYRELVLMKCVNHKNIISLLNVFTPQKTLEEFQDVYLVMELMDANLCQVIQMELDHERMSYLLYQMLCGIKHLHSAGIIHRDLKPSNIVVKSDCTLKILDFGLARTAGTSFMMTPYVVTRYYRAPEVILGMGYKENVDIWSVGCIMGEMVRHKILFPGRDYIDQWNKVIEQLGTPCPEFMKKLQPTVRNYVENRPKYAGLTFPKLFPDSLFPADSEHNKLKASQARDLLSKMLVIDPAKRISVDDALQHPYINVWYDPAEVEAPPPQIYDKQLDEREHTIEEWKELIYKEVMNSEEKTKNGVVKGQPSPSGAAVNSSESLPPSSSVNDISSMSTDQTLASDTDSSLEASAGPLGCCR
# Active calls of the source: *; / = no result given; [ ] = another dose, or the depositor's remark. A portion of the library. The share of hits here may be higher or lower than overall.
1: Cc1ccc(NC(=O)N2C(=O)C3(OCCO3)c3ccccc32)cc1
2: COCCCNC(=O)Nc1ccc(F)cc1F
3: COc1ccccc1NC(=O)c1nc[nH]c1C(=O)Nc1ccccc1OC
4: CC(=O)N1CCc2cc(C(=O)CN3CCC(C)CC3)ccc21
5: CCNC(=O)N1C(=O)C2(OCCO2)c2ccccc21
6: CC1(C)CC(=O)C(C=Nc2ccncc2)=C(O)C1
7: O=C(O)c1ccc(NC(=O)c2cccs2)cc1
8: CCCN(CCC)c1ncnc2nc[nH]c12
assay / entry	1	2	3	4	5	6	7	8
A340 absorber	1	1.03	1.03	1.09	0.99	1.03	0.99	1.05
JNK3 blocker	2.2	3.8	1.3	-8.3	-1.6	-1.5	-7.3	5.2
tolC growth inh	-5.6	-19.8	-10.7	-2.8	-15.0	-12.8	-18.3	-5.3
Autofluor 339	1.05	1.1	2.33*	1.13	1.09	1.02	1.03	1.41
HEK293 NFkB inh	7.1	18.4	19.2	11.5	8.7	1.1	11.9	15.0
NADH enzymes	4.0%	4.0%	8.0%	7.0%	3.0%	1.0%	2.0%	13.0%
MMP-13 inhibitor	-1.9	-1.6	3.0	-5.2	10.4	2.4	2.1	-9.6

9: O=C(COc1ccccc1)N1CCN(C(=O)c2cccs2)CC1
10: Cc1ncoc1C(=O)Nc1ccc(Oc2ccccc2)cc1
11: CC(C)C1Cc2c(sc3c2c(=O)n(-c2ccccc2)c2nncn32)CO1 (centres undefined)
12: COc1ccc(-c2nc3oc4cc(OC)ccc4c(=O)c3c(=O)n2Cc2ccco2)cc1
13: c1ccc(-n2c(-c3ccco3)nnc2N2CCOCC2)cc1
14: c1ccc(Nc2nc(-c3ccncc3)cs2)nc1
15: CCc1ccc(OCC(=O)Nc2ncc3c(n2)CC(C)(C)CC3=O)cc1
16: O=C(Nc1nc(-c2ccncc2)cs1)C1COc2ccccc2O1 (centres undefined)
assay / entry	9	10	11	12	13	14	15	16
A340 absorber	1.04	1.01	1.01	1.08	1.01	1.01	0.98	0.98
JNK3 blocker	-9.3	-2.3	0.4	0.1	7.5	5.2	-0.8	1.6
tolC growth inh	-17.2	-1.8	1.6	94.7*	-7.0	-16.7	-2.4	36.7
Autofluor 339	1.12	1.04	1.12	3.85*	1.08	0.98	1.1	1.04
HEK293 NFkB inh	21.1	-0.2	/	-1.0	2.2	-42.7	22.6	28.9
NADH enzymes	3.0%	6.0%	3.0%	3.0%[fluoresces]	7.0%	3.0%	3.0%	3.0%
MMP-13 inhibitor	2.5	-0.7	0.1	-6.1	2.0	2.6	-2.0	-1.5

17: CC(=O)Nc1cccc(-c2csc(NCc3ccco3)n2)c1
18: O=C(CN1C(=O)NC2(CCCCCC2)C1=O)c1ccc2c(c1)OCCO2
19: CCc1nc(OCCN(C)C)c2oc3ccccc3c2n1
20: CCN(CCNC(=O)C1CCN(S(C)(=O)=O)CC1)c1ccccc1
21: Cc1cc(C)nc(SCC(=O)Nc2ncc3c(n2)CC(C)(C)CC3=O)n1
22: O=C(c1cc(-c2ccco2)on1)N1CCN(C(c2ccccc2)c2ccccc2)CC1
23: COc1ccc(CNC(=O)C2CCN(c3nccs3)CC2)cc1
24: COc1ccc(-c2noc(CCC(=O)NC3CCCCC3)n2)cc1OC
assay / entry	17	18	19	20	21	22	23	24
A340 absorber	0.98	1.04	1.02	1.03	0.99	1.01	0.99	1
JNK3 blocker	-1.2	2.5	-0.4	5.6	3.4	-4.3	3.5	4.6
tolC growth inh	4.3	-2.6	-11.6	-5.5	-3.5	9.5	-2.2	-14.1
Autofluor 339	1.07	1.11	1.06	1.02	1.06	1.09	1.11	1.16
HEK293 NFkB inh	3.3	-40.5	-2.5	14.8	7.4	10.7	12.7	18.8
NADH enzymes	10.0%	9.0%	7.0%	4.0%	4.0%	3.0%	3.0%	5.0%
MMP-13 inhibitor	1.8	-11.1	0.9	1.1	-1.3	2.4	-9.8	-5.1

25: OCCN1CCN(c2ncnc3nc[nH]c23)CC1
26: COC(=O)c1ccccc1NC(=O)CSc1nnc(-c2ccncc2)o1
27: CC(CCc1ccccc1)NC(=O)c1ccncc1 (centres undefined)
28: CCCCCc1ccc(-c2ccc(=O)[nH]n2)cc1
29: CCOC(=O)NCc1ccc2c(c1)OCO2
30: CCCCc1ccc(NC(=O)CSC2=C(C#N)C(c3ccco3)C3=C(CCCC3=O)N2)cc1 (centres undefined)
31: CCOC(=O)C1CCN(C(=O)Cc2ccc(OC)c(OC)c2)CC1
32: Cc1ccccc1NS(=O)(=O)c1ccc2[nH]cc(C(=O)NCCCN3CCOCC3)c(=O)c2c1
assay / entry	25	26	27	28	29	30	31	32
A340 absorber	1.04	0.99	1.05	1.01	0.99	1.05	1.04	1.04
JNK3 blocker	3.6	6.3	-11.3	6.2	5.8	-1.3	2.6	-4.5
tolC growth inh	-7.9	11.1	4.5	13.7	-10.9	8.9	-16.5	-10.5
Autofluor 339	1	1.04	1.07	1.09	1.03	1.12	1.15	1.83
HEK293 NFkB inh	6.8	/	21.0	/	4.1	/	9.9	-0.8
NADH enzymes	4.0%	2.0%	3.0%	3.0%	6.0%	3.0%	8.0%	5.0%
MMP-13 inhibitor	-4.5	-3.5	6.2	0.0	-3.7	4.1	-9.1	-7.0

33: C=COCCn1c(-c2nonc2N)nc2ccccc21
34: CC(=O)Nc1cc2c(cc1C(=O)c1ccc(C)cc1)OCCO2
35: CCc1cc2c(NCCO)ncnc2s1
36: CC1(C)Oc2ccc3ccc(=O)oc3c2/C(=C/Nc2ccccn2)C1=O
37: CC(=O)CSc1ncnc2nc[nH]c12
38: C=CCn1c(SCC(=O)Nc2c(C)cccc2C)nnc1-c1ccncc1
39: CCC(C)NCC(=O)Nc1ccc(-c2nc3cc(NC(=O)CNC(C)CC)ccc3o2)cc1 (centres undefined)
40: COc1ccccc1OC(=O)c1ccc(SC)cc1OC
assay / entry	33	34	35	36	37	38	39	40
A340 absorber	1.04	1.07	1.01	1.1	1.06	1.01	1.16	0.98
JNK3 blocker	1.9	-1.3	0.9	3.3	7.8	-8.2	2.1	-1.4
tolC growth inh	3.8	8.4	-11.8	-10.4	-20.7	-17.9	39.4	14.1
Autofluor 339	1.09	1.09	1.49	1.12	0.92	1.02	3.72*	1.03
HEK293 NFkB inh	5.4	-3.9	3.6	0.3	0.3	12.7	0.7	-1.7
NADH enzymes	6.0%	0.0%	10.0%	5.0%	4.0%	7.0%	11.0%[fluoresces]	4.0%
MMP-13 inhibitor	7.8	4.6	-5.9	-2.0	3.0	2.9	-73.7[fluorescence artefact?]	-1.2

# Part of the list above in order of number of heavy atoms, highest first.
32: Cc1ccccc1NS(=O)(=O)c1ccc2[nH]cc(C(=O)NCCCN3CCOCC3)c(=O)c2c1
39: CCC(C)NCC(=O)Nc1ccc(-c2nc3cc(NC(=O)CNC(C)CC)ccc3o2)cc1 (centres undefined)
38: C=CCn1c(SCC(=O)Nc2c(C)cccc2C)nnc1-c1ccncc1
24: COc1ccc(-c2noc(CCC(=O)NC3CCCCC3)n2)cc1OC
31: CCOC(=O)C1CCN(C(=O)Cc2ccc(OC)c(OC)c2)CC1
34: CC(=O)Nc1cc2c(cc1C(=O)c1ccc(C)cc1)OCCO2
40: COc1ccccc1OC(=O)c1ccc(SC)cc1OC
33: C=COCCn1c(-c2nonc2N)nc2ccccc21
27: CC(CCc1ccccc1)NC(=O)c1ccncc1 (centres undefined)
28: CCCCCc1ccc(-c2ccc(=O)[nH]n2)cc1
assay / entry	32	39	38	24	31	34	40	33	27	28
A340 absorber	1.04	1.16	1.01	1	1.04	1.07	0.98	1.04	1.05	1.01
JNK3 blocker	-4.5	2.1	-8.2	4.6	2.6	-1.3	-1.4	1.9	-11.3	6.2
tolC growth inh	-10.5	39.4	-17.9	-14.1	-16.5	8.4	14.1	3.8	4.5	13.7
Autofluor 339	1.83	3.72*	1.02	1.16	1.15	1.09	1.03	1.09	1.07	1.09
HEK293 NFkB inh	-0.8	0.7	12.7	18.8	9.9	-3.9	-1.7	5.4	21.0	/
NADH enzymes	5.0%	11.0%[fluoresces]	7.0%	5.0%	8.0%	0.0%	4.0%	6.0%	3.0%	3.0%
MMP-13 inhibitor	-7.0	-73.7[fluorescence artefact?]	2.9	-5.1	-9.1	4.6	-1.2	7.8	6.2	0.0

29: CCOC(=O)NCc1ccc2c(c1)OCO2
35: CCc1cc2c(NCCO)ncnc2s1
37: CC(=O)CSc1ncnc2nc[nH]c12
assay / entry	29	35	37
A340 absorber	0.99	1.01	1.06
JNK3 blocker	5.8	0.9	7.8
tolC growth inh	-10.9	-11.8	-20.7
Autofluor 339	1.03	1.49	0.92
HEK293 NFkB inh	4.1	3.6	0.3
NADH enzymes	6.0%	10.0%	4.0%
MMP-13 inhibitor	-3.7	-5.9	3.0

# High-throughput results as filed in PubChem.
